# Assay outcomes as filed in PubChem.
# HNF4A DNA FP = change in binding of human HNF4 alpha to DNA. activity change, % at 10 µM. hit rate 0.3% among 360,000. P41235. AID 1224865. HNF4a-FITC DNA binding, fluorescence polarization, 1 h; in the data active = activity change above about 30%, passing the limit was not always enough;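 also: controls were the assay level and a saturating level of protein; the project sought stronger binding though the title names inhibitors; some compounds called inactive have numbers as strong as hits; positive values seem to mean higher polarization but the record does not say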
# FGF22 binding = FGF22 (human) thermal shift binding. Q9HCT0. recombinant FGF22 thermal shift, SYPRO orange fluorescence; percent of sucrose octasulfate shift, DMSO zero. calls only at 9.99 µM. hit rate 1.5% among 340,000;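 active = melting point raised past a set limit in the mean and every replicate; inconclusive = no clear call; three in four hits are not shown here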
# Target sequence (Q9HCT0 whole entry, looked up): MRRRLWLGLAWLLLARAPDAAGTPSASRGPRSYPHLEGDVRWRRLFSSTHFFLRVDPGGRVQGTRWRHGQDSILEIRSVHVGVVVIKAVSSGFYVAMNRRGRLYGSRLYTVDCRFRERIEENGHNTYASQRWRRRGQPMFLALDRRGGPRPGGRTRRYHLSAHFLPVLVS
# ALR H2O2 inh = blocks human ALR sulfhydryl oxidase activity | purified ALR, DTT oxidation, H2O2 HRP-luminol luminescence | inhibition, % (no concentration beside the values) | hit rate 3.8% among 290,000;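 active = mean and each replicate at 75% or more; inconclusive = only one of the two met; inactive = neither met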;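 also: stock transfer was 7.5 nL into about 7.5 µL; 0% = neutral wells and 100% = wells with inactivated enzyme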
# Target sequence (P55789 whole entry, looked up): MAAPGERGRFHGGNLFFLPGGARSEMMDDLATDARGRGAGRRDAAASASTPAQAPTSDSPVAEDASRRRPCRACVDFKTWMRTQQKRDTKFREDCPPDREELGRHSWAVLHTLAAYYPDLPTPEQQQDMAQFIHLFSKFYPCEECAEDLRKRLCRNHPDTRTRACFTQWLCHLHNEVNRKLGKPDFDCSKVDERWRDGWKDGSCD
# Vif TR-FRET = inhibitors of Vif binding to APOBEC3G peptide, primary screen, biochemical, TR-FRET, GST-Vif 1-94, biotin-A3G peptide, dose response retest (AID 1117319) | TR-FRET GST-Vif / biotin-A3G peptide binding; higher % means a stronger effect; test concentration not given here; strong numbers were not always called active | inhibition, %, or IC50 in µM where a hit was titrated | hit rate 0.57% among 260,000;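 active = above the screen mean plus three standard deviations and confirmed in dose response; inconclusive = results disagree or hit not tested in dose response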;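 also: Vif residues 1-94 fused to GST binding biotinylated APOBEC3G peptide 110-148; 0% = full assay without inhibitor and 100% = GST in place of GST-Vif; retest series ran down from 100 µM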
# Ecoli growth = E. coli growth inhibition. Escherichia coli growth, OD600, 23 h; hits give low values. OD600 absorbance (concentration not given with the values). hit rate 0.21% among 330,000;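 active = OD600 absorbance below the run mean of sample wells minus 3.6 SD, in any replicate, cut at about 0.56 in these data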;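 also: stock transfer was 300 nL into about 60 µL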
# rRNA inh HTS = selective bacterial rRNA inhibition in E. coli; E. coli WT GFP vs humanized-ribosome RFP mutants, fluorescence, 24 h; hits give low values; DMSO median 0, no signal -100; GFP signal change (wild-type ribosome), % (test concentration not listed); hit rate 1.6% among 350,000;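 active = significant combined selectivity score with lowered wild-type GFP, culture density cut under 30%, mutant RFP and density less affected; inactive = any of these conditions unmet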; also: one replicate is shown; some compounds called inactive have numbers as strong as hits
# AF4-AF9 inh = blocks AF4 peptide binding to human AF9. hit rate 0.47% among 350,000. AID 651704. inhibition, % at 10 µM. AlphaScreen, biotin-AF4 peptide binding to FLAG-AF9;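 active = every replicate reaching a set inhibition limit, whatever the replicate mean, cut at about 25% in these data; inconclusive = mean inhibition reaches that limit but some replicates miss it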;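 also: 0% = plate neutral control median and 100% = total signal loss; the record names both 10 and 1 µM as test concentration; the first replicate is given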
# Target sequence (P42568 whole entry, looked up): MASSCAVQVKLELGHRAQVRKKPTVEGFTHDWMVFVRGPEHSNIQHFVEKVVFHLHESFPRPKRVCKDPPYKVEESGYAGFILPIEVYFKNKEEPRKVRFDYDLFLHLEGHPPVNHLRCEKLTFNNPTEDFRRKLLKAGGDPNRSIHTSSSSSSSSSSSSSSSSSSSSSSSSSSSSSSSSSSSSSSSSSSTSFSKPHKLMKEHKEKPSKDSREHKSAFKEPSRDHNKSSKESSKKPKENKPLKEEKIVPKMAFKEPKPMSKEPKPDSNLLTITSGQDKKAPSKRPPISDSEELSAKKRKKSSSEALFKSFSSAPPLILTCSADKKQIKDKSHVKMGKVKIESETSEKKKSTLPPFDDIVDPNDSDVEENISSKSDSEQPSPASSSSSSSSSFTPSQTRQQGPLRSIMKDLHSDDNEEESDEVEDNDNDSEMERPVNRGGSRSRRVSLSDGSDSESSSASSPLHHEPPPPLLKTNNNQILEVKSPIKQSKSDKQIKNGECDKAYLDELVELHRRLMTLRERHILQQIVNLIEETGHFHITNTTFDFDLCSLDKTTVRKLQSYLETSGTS
# rRNA inh HTS OD600 = recorded beside rRNA inh HTS, whose call it bears; OD600 change, %; measured here: OD600 growth;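 optical density of the mix in the first replicate; 0 = DMSO median and -100 = no signal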
# rRNA inh HTS RFP = further read-out of rRNA inh HTS, marked with its call; RFP signal change, %; measured here: RFP humanized mutant strains;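 first replicate; 0 = DMSO median and -100 = no signal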
# Numbers without * were called inactive; i = inactive; ? = inconclusive; . = no result given; & = joins results of further samples. These rows are one share of the data (hit frequency here may not be typical).
SMILES,HNF4A DNA FP,FGF22 binding,ALR H2O2 inh,Vif TR-FRET,Ecoli growth,rRNA inh HTS,rRNA inh HTS OD600,rRNA inh HTS RFP,AF4-AF9 inh
Cc1cc(C)c2c(c1)/C(=N/Nc1ccc(S(N)(=O)=O)cc1[N+](=O)[O-])CCC2,1.4,i,-7.1,.,.,5.4,1.7,4.6,-31.3
CCn1cc(C(=O)NCc2ccc3c(c2)OCO3)c(=O)c2cc(S(=O)(=O)N3CCOCC3)ccc21,1.2,.,-7.5,8.8%&-9.2%,0.722,.,.,.,.
CC(=O)Nc1ccc(S(=O)(=O)Nc2nc3nc(-c4ccccc4)cc(-c4ccccc4)n3n2)cc1,3.4,i,4.3,-11.1%,0.67,24.8,-9.8,-14.5,-0.6
NC(=O)C(Cc1ccccc1)NC(=O)C12CC3CC(CC(C3)C1)C2 (centres undefined),4.4,i,-1.6,1.1%,0.633,1.2,-7.3,1.1,-8.1
N=C1C(=O)OCC1c1ccccc1NC(=O)Nc1ccccc1 (centres undefined),-0.8,i,2.7,10.8%,0.719,.,.,.,-1.4
C/C(=N\NC(=O)c1nn(C)cc1Br)c1cccc(NC(=O)C(C)(C)C)c1,1.0,.,-2.6,5.8%,.,.,.,.,.
COC(=O)c1ccccc1NC(=O)Cn1cc2c(n1)CCC(C)C2 (centres undefined),5.9,i,-2.2,8.8%,0.779,-2.5,-27.0,-4.8,-1.4
CCc1nnc(NC(=O)CSc2nnc(CNC(=O)c3ccccc3)o2)s1,-1.4,i,.,3.6%,.,1.9,-0.3,0.3,-1.4
COc1ccc(OCC(=O)N2c3ccccc3CCc3ccccc32)cc1,0.9,.,-11.2,-11.3%,0.689,.,.,.,.
CCCCn1cnc2c(cnn2-c2ccc(Cl)cc2)c1=O,-0.7,.,-1.3,8.5%,0.73,.,.,.,.
Cc1ccc(-c2cc(C(=O)NCc3cccs3)no2)cc1,-0.7,.,0.4,4.9%,0.692,.,.,.,.
CCOC(=O)c1ccccc1NC(=O)CN1CCC(n2nnc3cc(F)ccc32)CC1,-0.3,i,.,.,0.715,-2.1,-3.7,-1.1,-24.8
CCNC(=O)C[C@@H]1CC[C@H]2[C@H](COc3ccc(NC(=O)Cc4cccs4)cc3C(=O)N2C)O1,.,i,.,.,.,0.0,-3.2,-0.5,-1.3
C[C@H]1CN([C@@H](C)CO)C(=O)c2cccc(NC(=O)Nc3cccc4ccccc34)c2O[C@H]1CN(C)C,.,i,.,.,.,-3.0,-4.0,3.9,4.2
CC(C)(C)NC(=O)NC(=O)COC(=O)Cc1coc2ccc3ccccc3c12,0.7,i,-9.9,.,0.662,-16.8,-42.0,-9.9,-4.6
O=C(Nc1ccccc1)c1snc2c(=O)[nH]cnc12,-2.0,.,-1.2,.,0.635,-59.4,-75.0,-22.5,-0.6
CC(C)S(=O)(=O)c1nsc2nc(=O)c(/C=C3\C=Nc4ccccc43)c(N)n12,4.0,i,?,-6.2%,0.649,-42.0,-65.4,-8.0,1.6
CCCN(C(=O)Cc1nc(N)n[nH]1)C1(C(=O)Nc2c(C)cccc2C)CCCCC1,3.7,.,-18.1,-1.5%,0.727,.,.,.,.
COc1ccc(NC(=O)N2C3CCCC2CC(NC(=O)c2ccccc2)C3)cc1 (centres undefined),0.1,i,-2.5,.,0.656,1.0,1.8,-2.8,-2.3
CCC(=NC1CC(C)(C)NC(C)(C)C1)C1=C(O)CC(C)(C)CC1=O,-0.1,.,-2.1,1.2%,0.762,.,.,.,.
Cc1cc(C)cc(N(C(=O)c2cc3ccccc3oc2=O)C2C=CS(=O)(=O)C2)c1 (centres undefined),1.4,.,-1.9,.,0.669,.,.,.,.
COc1ccccc1-n1c(SCC(N)=O)nc2c(c1=O)SCC2,0.9,i,.,-5.1%,0.775,13.2,11.2,3.4,-1.7
Cc1csc2nc(O)c(C(=O)NC3CCCCC3)c(=O)n12,-2.6,i,22.3,1.4%,0.716,12.4,7.2,0.3,1.0
CCN(C(=O)COC(=O)c1ccc2c(=O)n3c(nc2c1)CCC3)C1CCS(=O)(=O)C1 (centres undefined),2.2,i,-16.4,9.9%,0.666,9.4,-0.9,-1.6,-1.3
O=C(O)c1ccccc1C(=O)OCCCCOC(=O)c1ccccc1C(=O)O,-0.3,.,-21.9,15.7%,0.704,.,.,.,-9.2
CC1(C(=O)NCC2CC2)Cc2c(-c3cccc(C(N)=O)c3)ccnc2O1 (centres undefined),-5.2,i,.,.,.,3.7,-1.8,-4.1,-2.1
C=CCNC(=O)CCCOc1cccc(C)c1,-2.6,.,-1.7,29.4%,0.691,.,.,.,.
COc1ccc(Nc2nc(C(C)(C)C)nc3c2nnn3Cc2ccccc2Cl)cc1OC,1.8,.,-25.8,-3.2%,0.724,.,.,.,.
COC(=O)Oc1ccc(/C=N/NC(=O)CSCc2ccc(Cl)cc2)cc1OC,3.7,i,62.8,.,.,0.1,-4.5,3.2,-0.6
C[C@H]1CCCCO[C@@H](CN(C)Cc2ccncc2)[C@@H](C)CN([C@@H](C)CO)C(=O)c2cc(NC(=O)Cc3ccccc3)ccc2O1,.,i,.,.,.,-2.5,-1.4,0.1,0.9
COc1ccc(NC(=O)N(C)C[C@@H]2Oc3ncc(C#C[C@@H](C)O)cc3C(=O)N([C@@H](C)CO)C[C@H]2C)cc1,.,i,.,.,.,1.0,11.1,-2.4,-1.7
C=CC[n+]1ccc2ccccc2c1C,0.0,i,-17.9,8.0%,0.659,10.1,8.9,5.0,-0.9
COC(=O)c1cc(NC(=O)COC(=O)C2COc3ccccc3O2)cc(C(=O)OC)c1 (centres undefined),0.4,i,-6.2,.,0.685,5.7,5.7,-1.0,-8.7
CC(C)(c1ccccc1)c1ccc(OCc2ccc(C(=O)O)o2)cc1,1.1,i,.,4.0%,0.683,-45.7,-60.3,-9.6,-0.9
COc1cccc(CNC(=O)CCCNC(=O)c2ccc(Cl)cc2)c1,-0.9,i,-3.8,-2.6%,0.715,7.8,7.8,-0.4,-2.7
COCCNC(=O)C(=O)NCC1OCCN1S(=O)(=O)c1cc(F)ccc1F (centres undefined),4.7,i,.,-3.7%,0.733,-1.9,7.4,-0.2,-3.3
CC1CCCN(Cc2c(O)ccc3c2O/C(=C\c2ccco2)C3=O)C1 (centres undefined),-18.2,i,0.1,2.89µM*,0.632,10.7,10.5,-1.8,1.6
c1ccc(-c2nn3c(-c4ccco4)nnc3s2)nc1,0.6,.,10.9,1.9%,0.774,.,.,.,.
C/C(=N\OCC(=O)Nc1ccc(OC(F)(F)F)cc1)c1ccc2c(c1)OCCO2,2.0,.,-12.7,?,.,-15.3,-26.1,-4.9,1.1
C=C[C@@H]1c2ccccc2N(S(=O)(=O)c2ccc(C)cc2)[C@H](c2ccc(C(=O)OC)cc2)C1(C#N)C#N,3.3,i,5.1,.,.,6.6,1.5,-2.6,-1.8
O=C(COc1ccc(Cl)cc1Cl)NC(=S)N1CCCc2ccccc21,2.7,i,98.3*,6.4%,0.646,-25.8*,-13.8*,-3.3*,-6.9
O=C(Nc1ccc(S(=O)(=O)N2CCCC2)cc1)c1ccc(CN2CCOCC2)cc1,0.4,.,-4.6,4.5%,0.701,.,.,.,.
CO[C@@H]1CN(C)C(=O)c2ccc(NC(=O)c3cnccn3)cc2OC[C@@H](C)N(C(C)=O)C[C@H]1C,.,i,.,.,.,1.6,1.0,-5.1,-1.8
CCNC(=S)Nc1cccc(F)c1C,0.3,i,3.7,-7.5%,0.69,11.6,13.7,-3.3,-1.5
COC(=O)C[C@@H]1C=C[C@H](NC(=O)Nc2ccc(C(F)(F)F)cc2)[C@H](CO)O1,.,i,.,.,.,-8.3,-11.1,0.2,0.4
O=C1c2cccc3cccc(c23)C(=O)N1/N=C/c1ccc(O)cc1O,1.7,.,8.7,-10.2%,.,.,.,.,.
CC(C)Cn1c2c(c(O)c(C(=O)Nn3c(Cc4ccccc4)nc4ccccc4c3=O)c1=O)CCCC2,-3.5,i,-1.7,26.9%,0.733,22.4,14.1,2.8,-1.2
Cc1ccc(NC(=O)CN2C(=O)N/C(=C/c3ccc(N4CCOCC4)cc3)C2=O)cc1,1.1,.,4.2,.,0.722,.,.,.,.
CCOC(=O)N1CCC(NS(=O)(=O)c2ccc3c(c2)OCC(=O)N3)CC1,18.9,.,-8.6,-0.5%,0.67,.,.,.,.
COc1cccc(Nc2nc3ccccc3nc2-n2nc(C)cc2C)c1,1.5,i,.,-2.3%,0.711,11.5,11.4,4.8,-15.4
CC=Cc1ccc2n(c1=O)C[C@H]1[C@H](CO)[C@@H](C(=O)NCCc3cn(C)cn3)[C@@H]2N1C(=O)C1CCCC1 (mixture of isomers),.,i,.,.,.,-6.5,-2.1,2.9,1.3
COc1ccc(CCNc2nc(C)nc3c2oc2ccccc23)cc1OC,1.9,.,-2.1,3.0%,0.665,.,.,.,.
CCc1ccc(OCC(=O)N(Cc2ccccc2)C2CCS(=O)(=O)C2)cc1 (centres undefined),3.9,i,.,-2.5%,0.69,-10.0,-8.2,1.1,0.7
Cc1ccc(S(=O)(=O)N[C@@H]2CC[C@@H](CC(=O)NCc3ccncn3)O[C@H]2CO)cc1,.,i,.,.,.,3.9,13.6,-0.6,-0.5
O=C(CCc1ccccc1)C(=O)N1CCCC(C(=O)c2cccc(Cl)c2)C1 (centres undefined),-1.1,i,-4.3,3.6%,0.691,-22.4,-28.2,-3.6,-3.6
O=C(NCCCN1CCOCC1)c1cc(-c2ccccc2)on1,1.8,i,-4.3,-2.6%,0.664,2.5,-8.7,-0.8,1.1
COc1cc(OC)c(C2CC(=O)N3CN(C)CSC3=C2C#N)cc1OC (centres undefined),0.9,i,-17.8,14.3%,0.782,-1.6,-1.8,2.1,1.4
CCOc1ccccc1NC(=O)CCSc1nc2n[nH]c(C)c2c(=N)n1-c1ccccc1Cl,1.5,.,-8.3,-9.2%&-8.3%,0.677,.,.,.,.
COc1ccc(CC(=O)NCc2nnc(SCC(=O)Nc3nccs3)n2C)cc1,-1.4,i,-3.8,10.7%,0.652,19.0,11.5,0.1,-0.4
CN(C)/C=C/c1c([N+](=O)[O-])c2ccc(O)cc2n1-c1ccccc1,0.9,i,6.7,.,0.733,-0.8,-4.5,7.3,-23.9
# Later entries
SMILES,HNF4A DNA FP,FGF22 binding,ALR H2O2 inh,Vif TR-FRET,Ecoli growth,rRNA inh HTS,rRNA inh HTS OD600,rRNA inh HTS RFP,AF4-AF9 inh
O=C(C1=CC=CN2CCS(=O)(=O)N=C12)N1CCN(c2cccc(Cl)c2)CC1,-1.8,i,8.4,8.0%,0.717,4.0,1.8,2.4,3.5
CCCCOc1ccc(C(=O)N/C(=C/C=C/c2ccccc2)C(=O)NCCO)cc1,-1.2,i,-1.1,.,0.676,.,.,.,-3.8
COc1ccccc1N1CCN(C(=O)c2c(-c3ccccc3Cl)noc2C)CC1,-2.9,.,19.6,8.1%,0.707,.,.,.,.
COc1ccc(OCCCC(=O)N(C)CC(=O)Nc2c(C)cccc2C)cc1,2.1,i,.,11.0%,0.692,7.7,9.0,-1.4,-11.6
COC(=O)c1cc(OC)c(OC)cc1NCC(=O)Nc1cccc(C(F)(F)F)c1,0.8,i,-0.4,3.1%,0.678,-1.3,3.6,-3.5,0.3
COc1nc(N)c(S(=O)(=O)c2ccc(C)cc2)cc1C#N,16.1,.,-27.0,-1.0%,0.723,.,.,.,.
CCCCn1c(N)c(NCC(C)C)c(=O)[nH]c1=O,-2.1,i,-4.1,-3.7%,0.655,7.2,14.3,-4.4,3.7
